Mtb growth: M. tuberculosis H37Rv growth inhibitors, H37Rv strain (AID 1626). M. tuberculosis H37Rv growth inhibition; higher % means a stronger effect. inhibition, % at 10 µM, or IC50 in µM where a hit was titrated. 0.95% of 220,000 active;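 active means confirmed in a dose series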;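 further: bacteria incubated seven days before Alamar blue readout; 0% = bacteria only wells and 100% = bacteria with antibiotic wells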
YopH PTP inh: inhibitors of Yersinia enterocolitica YopH tyrosine phosphatase; fluorescence Ex485/Em525; inhibition, %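 (about 10 µM by stock and volumes)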; 0.16% of 140,000 active; AID 898;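 active means inhibition of 50% or more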;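 further: controls were vehicle for no effect and minimum signal wells for full effect; inactives centre near -20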
Mtb betalactam: beta-lactam sensitization of Mtb H37Rv; M. tuberculosis H37Rv growth with meropenem, percent inhibition; hits of this screen are not shown here; inhibition, % at 25 µM; 0.27% of 330,000 active;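 active means about 74% or more and at least 40 points above the plate without the antibiotic, then above 30% in a dose series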;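 further: growth measured after seven days incubation then overnight dye step; 0% = bacteria only wells and 100% = bacteria with antibiotic; twin plates without the antibiotic show which effects depend on it; some results filed as inactive read as strong as hits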
Arbovirus inh: antivirals against arbovirus infection. arbovirus infection cell-based antiviral screen. inhibition, % at 10 µM. 0.37% of 200,000 active;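 active means inhibition from about 30%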;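 further: bluetongue infection of BSR cells; cell survival read as ATP light after 72 h; 0% = infected wells without compound and 100% = uninfected wells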
RecA intein inh: inhibitors of M. tuberculosis RecA intein splicing. P9WHJ3. cell-free RecA intein splicing, fluorescence. inhibition, %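 (about 9 µM by stock and volumes)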. 0.75% of 290,000 active. AID 2221; in the data active means inhibition above about 30%;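 further: 0% = vehicle wells and 100% = reference inhibitor control wells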
Target sequence (P9WHJ3 whole entry, looked up): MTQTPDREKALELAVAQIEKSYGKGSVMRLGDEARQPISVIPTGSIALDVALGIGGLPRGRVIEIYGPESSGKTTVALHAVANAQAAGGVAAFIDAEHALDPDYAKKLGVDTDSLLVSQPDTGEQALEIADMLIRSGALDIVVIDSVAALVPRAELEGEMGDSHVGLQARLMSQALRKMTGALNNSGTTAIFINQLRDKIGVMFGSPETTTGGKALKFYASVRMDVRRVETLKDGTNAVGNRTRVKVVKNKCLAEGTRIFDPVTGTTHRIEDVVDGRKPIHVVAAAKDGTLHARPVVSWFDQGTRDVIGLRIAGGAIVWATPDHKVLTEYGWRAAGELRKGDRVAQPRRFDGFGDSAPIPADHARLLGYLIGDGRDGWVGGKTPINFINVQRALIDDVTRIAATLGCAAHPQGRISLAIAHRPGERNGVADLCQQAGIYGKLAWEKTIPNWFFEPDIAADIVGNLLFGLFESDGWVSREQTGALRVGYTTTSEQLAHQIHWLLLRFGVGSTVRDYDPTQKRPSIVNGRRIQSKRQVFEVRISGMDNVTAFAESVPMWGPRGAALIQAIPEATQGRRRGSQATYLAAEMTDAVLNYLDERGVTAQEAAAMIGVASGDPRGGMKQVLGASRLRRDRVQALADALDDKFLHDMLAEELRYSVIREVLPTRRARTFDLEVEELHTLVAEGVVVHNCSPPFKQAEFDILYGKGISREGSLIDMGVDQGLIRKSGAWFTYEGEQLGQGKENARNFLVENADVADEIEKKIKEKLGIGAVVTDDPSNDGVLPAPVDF
Arbovirus inh repeat: further read-out of Arbovirus inh, marked with its call; inhibition, %; measured here: 10K subset replicate screen; many hits read low in the repeat;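 first of two repeat runs on a subset; 0% = infected and 100% = uninfected wells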
Numbers without * were called inactive; . = no result given. These rows are one share of the data (hit frequency here may not be typical).

SMILES | Mtb growth | YopH PTP inh | Mtb betalactam | Arbovirus inh | RecA intein inh | others
CS(=O)(=O)N1CCc2cc(S(=O)(=O)N3CCCCC3)ccc21 | -5% | . | -8 | 17 | 2.9
C=CCn1c(C)cc(C(=O)CSc2nnc3c(Cl)cc(Cl)cn23)c1C | 4% | -20 | -4 | 14 | -0.2
CN(C)CCN(CC1CCCN(Cc2ccccc2F)C1)C(=O)c1ccc(F)cc1 (centres undefined) | . | . | -7 | . | 0.2
C[C@]12CC[C@H](O)CC1=CC[C@@H]1[C@@H]2CC[C@@]2(C)[C@H]1CC[C@]2(C)O | 2% | . | 3 | . | -0.3
C=CCn1c(SCC(=O)Nc2cc(OC)c(NC(=O)c3ccco3)cc2OC)nnc1-c1ccncc1 | 8% | -29 | 91 | 4 | -1.6
COc1cc(/C=C(/NC(=O)c2ccccc2Cl)C(=O)O)cc(OC)c1OC | -6% | -23 | 1 | -4 | -4.4
COc1ccc(NC(=O)CC(C)c2ccccc2)c([N+](=O)[O-])c1 (centres undefined) | 5% | -29 | 3 | -4 | 2.4
COc1ccc(N2CCN(CCNS(=O)(=O)c3cccc4nsnc34)CC2)cc1 | -1% | -24 | . | 8 | .
CCn1c(-c2cc3ccccc3cc2O)n[nH]c1=S | 2% | -12 | 7 | 16 | -7.5
CC(C)(C)OC(=O)N1CCC(c2c(C(=O)NC3CC3)cnn2-c2ccccc2)CC1 | . | . | -1 | . | -0.8
COC(=O)CNC(=O)C(NC(=O)c1ccc(Cl)cc1)C(C)C (centres undefined) | -3% | -6 | 1 | -2 | -2.1
O=C(C1CCCCC1)N(Cc1nc2sc3c(c2c(=O)[nH]1)CCCC3)Cc1cccs1 | 5% | -34 | -6 | -22 | 1.4
C=CCc1ccc(OCC(O)CN2CCc3ccccc3C2)c(OC)c1 (centres undefined) | . | . | 4 | . | 0.7
Cc1cc(N2CCN(c3ncccn3)CC2)nc2c(C)cccc12 | . | . | 99 | . | 0.1
Cc1ccc(Cl)cc1N1CCN(Cc2nnnn2C2CCCCC2)CC1 | 16% | -45 | 60 | -33 | 12
O=c1[nH]cnc2nn(-c3ccccc3)nc12 | 0% | -35 | 5 | -1 | -4.7
O=C(CSc1nnc2ccccn12)NCc1ccco1 | 0% | . | -2 | 5 | 1.8
CC(C)(C)OC(=O)N1CCC[C@H]1c1nnc(SCc2ccccc2)o1 | -3% | . | -1 | . | .
COc1ccc(NC(=O)C2CCCN2C(=O)NC2CCCCC2)cc1 (centres undefined) | . | . | -2 | . | 3.5
CCCn1c(C(O)c2ccc(OCC)cc2)nc2ccccc21 (centres undefined) | 0% | -37 | 1 | -3 | 2.0 | Arbovirus inh repeat=4
CCOC(=O)CCS(=O)(=O)c1ccc(-c2ccc(S(=O)(=O)CCC(=O)OCC)cc2)cc1 | -2% | -2 | 2 | 3 | 0.8
O=C(O)C1CCN(C(=O)COc2ccc3c4c(c(=O)oc3c2)CCCC4)CC1 | . | . | 7 | . | -2.4
O=C(N/N=C/c1ccccn1)c1cccc(NC(=O)c2ccccc2Cl)c1 | . | . | 3 | . | -1.0
CCCC[C@H]1COCCS(=O)(=O)N1Cc1cccc([N+](=O)[O-])c1 | . | . | -1 | . | -0.1
CC(=O)Nc1ccc(NC(=O)C2CCCN2/C=C/C(=O)C(F)(F)F)cc1 (centres undefined) | -1% | . | -10 | 0 | -0.1
CCN(CC)c1ccc(/C=C2\C(=O)NC(=S)N(C)C2=O)o1 | 12% | . | 95 | . | -2.1
CC1=CC(=O)C=C(C)C1=NOS(=O)(=O)c1ccccc1 | -2% | -13 | . | -31 | -0.7
COc1ccc(N2CCN(Cc3cc(=O)c(OCC(=O)NC4CCCC4)co3)CC2)cc1 | . | . | 7 | . | -3.5
NNc1nc2sc3c(c2c(=O)n1C1CCCCC1)CCN(Cc1ccccc1)C3 | 31% | . | 6 | . | -41
NC(=O)C1C(c2ccccc2)=C1c1ccccc1 | -18% | 10 | -9 | 2 | .
Cc1ccc(CNC(=O)[C@@H](NC(=O)Cc2ccccc2)C(C)C)cc1 | . | . | 6 | . | 5.7
Cc1ccn2c(CNCC3OCCc4ccccc43)c(C(=O)N3CCCCCC3)nc2c1 (centres undefined) | 1% | . | 1 | 2 | 2.5
CCNC(=S)Nc1cc(-c2ccc(Cl)cc2)[nH]n1 | -1% | . | 5 | 3 | 7.2
Cc1ccccc1OCC(=O)OCC(=O)NCCNC(=O)COC(=O)COc1ccccc1C | . | . | -10 | . | 1.0
Cc1ccc(/C=C/C(=O)NC(=S)N2CCN(c3ccc(F)cc3)CC2)cc1 | -7% | . | 10 | . | -2.9
Cc1ccc(NC(=O)c2c3c(nc4ccccc24)CCC3)cc1 | 4% | . | 41 | -4 | 2.4
Clc1ccc2c(c1)-c1nnc(Br)n1-c1ccccc1S2 | 2% | 40 | 9 | -21 | .
CCCCCN(C(=O)NC(=O)Nc1ccccc1OC)S(C)(=O)=O | -2% | -33 | 2 | 16 | 2.1
COCCNC(=S)N/N=C/c1ccc(-c2ccc([N+](=O)[O-])cc2)o1 | . | . | -8 | . | -5.3
CC(C)N1C(=O)/C(=C/C=C/c2ccco2)C(=O)N(Cc2ccco2)C1=O | -6% | -13 | -2 | 3 | 2.3
COc1ccccc1CC(=O)NCCCc1ccccc1 | . | . | -1 | . | -1.8
CCSC1=NCCN1C(=O)C(C)(C)Oc1ccc(Cl)cc1 | -6% | . | -5 | 23 | 11
CCN(CC)S(=O)(=O)c1ccc(N2CCCCC2)c(NC(=O)/C=C/c2ccc(OC)c(OC)c2)c1 | 2% | -17 | 3 | 4 | 4.2
CC1CN(CC(O)COc2ccc(C(=O)c3ccccc3)cc2)CC(C)O1 (centres undefined) | 9% | -7 | 5 | -2 | 0.9
CCN(CC)S(=O)(=O)c1cc(C(=O)NC2CCCCC2)ccc1C | 3% | -33 | -3 | -3 | 3.1
CCn1nc(NC(C)=O)c2cc3ccc(C)cc3nc21 | . | . | -1 | . | 0.0
NC(=O)c1ccc(NC(=O)C#Cc2ccccc2)cc1 | . | . | 3 | . | 1.2
COc1ccc(C(=O)N2CCCN(C)CC2)c(OC)c1 | . | . | -4 | . | 0.5
COc1ccc2c(c1)CC/C(=C\c1ccc(OC)c(Cn3cccn3)c1)C2=O | -2% | -11 | 6 | 18 | 24
CCC(=O)c1cccc2c1N=CC1=C(CC(C)(C)CC1=O)N2 | 6% | -21 | 6 | -6 | 0.3
O=C(CCNC(=O)c1ccc(Br)cc1)Nc1nccs1 | 1% | . | -4 | 1 | -2.8
COc1cc(C(=O)NC2=C(C#N)CCC2)cc(OC)c1OC | 7% | . | -5 | 2 | 2.2
FC(F)(F)c1ccnc(NCc2ccco2)n1 | -2% | . | -7 | . | -0.7
COc1ccccc1CNC(=O)COC(=O)C1=COCCO1 | 37% | -34 | . | 1 | -0.1
CCOC(=O)C1CCCN(C(=O)COc2ccccc2F)C1 (centres undefined) | 2% | . | 0 | 0 | .
Cc1c(NC(=O)C(C)N(c2ccccc2)S(C)(=O)=O)c(=O)n(-c2ccccc2)n1C (centres undefined) | 1% | . | -7 | 7 | -7.7
COc1ccc(C)cc1S(=O)(=O)Nc1cc2c3c(c1)C(C)C(=O)N3CCC2 (centres undefined) | . | . | -16 | . | 0.8
C=C1N2CCC(CC2)C1(O)c1ccc(C)cc1 (centres undefined) | -8% | -15 | 7 | 7 | .
COc1ccc(/C=C(\NC(=O)c2ccccc2)C(=O)N2CCN(C)CC2)cc1 | . | . | 3 | . | 0.1
COc1ccc2cc(CCNC(=O)CCc3ccccc3)c(=O)[nH]c2c1 | . | . | 6 | . | -0.8

Further entries follow.
SMILES | Mtb growth | YopH PTP inh | Mtb betalactam | Arbovirus inh | RecA intein inh | others
Cc1c(NC(=O)CCCCCN2C(=O)C3C4C=CC(C4)C3C2=O)c(=O)n(-c2ccccc2)n1C (centres undefined) | -5% | -16 | 3 | 2 | 1.9 | Arbovirus inh repeat=3
C/C(Cl)=C/CC1(CN2CCCC2=O)C(=O)NC(=O)NC1=O | 3% | 2 | -3 | -6 | -0.2
O=C(NCc1ccccc1)Nc1cccn(Cc2c(F)cccc2Cl)c1=O | -2% | . | 4 | -4 | -0.2
Cc1nc2ccccn2c(=O)c1NC(=O)c1cccc2ccccc12 | . | . | -20 | . | -0.1
Cc1cc(C)c2nc(SC(C)C(=O)NCC(=O)Nc3ccc(F)c(F)c3F)cc(C)c2c1 (centres undefined) | 7% | -19 | 0 | -5 | -2.8
Cc1[nH]c2ccccc2c1SCC(=O)NNC(=O)Nc1ccc(OC(F)(F)F)cc1 | 2% | . | -5 | . | -0.4
Fc1ccc(Cn2nnc(-c3ccc(CN4CCOCC4)cc3)n2)cc1 | -5% | -4 | 2 | -4 | 0.1
C=CCN1C(=O)C(CC(=O)Nc2ccccc2)S/C1=N/c1nccs1 (centres undefined) | -8% | . | -4 | . | -1.3
COc1ccc(OC)c(-n2c(-c3cc(-c4ccco4)[nH]n3)n[nH]c2=S)c1 | -8% | . | -2 | 2 | 3.2
CC(C)NC(=O)Cn1cnc2c1c(=O)n(C)c(=O)n2C | 1% | -5 | -1 | 6 | -2.9
O=C(OCCCN1CCOCC1)c1ccc(O)c(O)c1 | -1% | . | 2 | . | -10
COCCN(C(=S)Nc1ccc(C)cc1C)C(C)c1ccco1 (centres undefined) | -7% | . | 3 | 3 | -1.7
CCOC(=O)C(NCc1ccc(F)cc1)(NC(=O)c1ccccc1)C(F)(F)F (centres undefined) | -7% | -8 | 3 | -5 | -0.2
COc1ccc(S(=O)(=O)N(C)CC(=O)NCc2cccnc2)cc1 | 1% | -11 | -1 | 4 | 0.8
CCCCN(C(=O)c1cccc(S(=O)(=O)N2CCCCC2)c1)C1CCS(=O)(=O)C1 (centres undefined) | . | . | 2 | . | -1.6
Cc1nc2c(cc1NC(=O)C(C)(C)C)nc(C)n2Cc1ccccc1 | . | . | -4 | . | -0.7
O=C(Nc1cccc2nsnc12)c1ccc(F)cc1 | 7% | 14 | -1 | 12 | -6.6
Cc1ccc(C)n1-c1ccc(C#N)cn1 | 13% | . | -3 | -2 | 0.1
CN(Cc1nc2ccccc2c(=O)[nH]1)CC(O)COCc1ccco1 (centres undefined) | 5% | -33 | 0 | 4 | -4.4
Cn1c(CSCc2ccc(Cl)cc2)nnc1SCC(=O)Nc1nccs1 | -5% | -27 | -1 | -3 | -1.1
CCOC(=O)c1cc(CC)sc1NC(=O)CN1CCN(C(=O)C2CCCO2)CC1 (centres undefined) | . | . | -1 | . | 2.0
CCc1ccc(CNC(=O)CCc2nc(-c3cccs3)no2)cc1 | 7% | 9 | 0 | 6 | 0.2
CCC1Oc2ccc(C)cc2N(CC(=O)NCCc2ccc(OC)c(OC)c2)C1=O (centres undefined) | -5% | -54 | 8 | 9 | 2.0 | Arbovirus inh repeat=-2
COCC(=O)N1CCCN(c2nc3c(C)cccc3cc2C#N)CC1 | 14% | -16 | -9 | 2 | -92
CC(=O)c1cccc(NC(=O)CCS(=O)(=O)c2cc3c(cc2C)NC(=O)CO3)c1 | . | . | 0 | . | -2.4
CN1C(=O)NC(c2ccccc2[N+](=O)[O-])C2=C1CCCC2=O (centres undefined) | . | . | 0 | . | -19
CCN(CC)CCn1c(=S)[nH]c2cc3c(cc2c1=O)OCO3 | -11% | -41 | -2 | 7 | -5.9
CCCC[n+]1c(C)sc2cc(OC)ccc21 | 0% | . | 3 | -11 | -3.7

In the list so far, eleven contain fluorine.
SMILES | Mtb growth | YopH PTP inh | Mtb betalactam | Arbovirus inh | RecA intein inh | others
CN(C)CCN(CC1CCCN(Cc2ccccc2F)C1)C(=O)c1ccc(F)cc1 (centres undefined) | . | . | -7 | . | 0.2
CC(=O)Nc1ccc(NC(=O)C2CCCN2/C=C/C(=O)C(F)(F)F)cc1 (centres undefined) | -1% | . | -10 | 0 | -0.1
Cc1ccc(/C=C/C(=O)NC(=S)N2CCN(c3ccc(F)cc3)CC2)cc1 | -7% | . | 10 | . | -2.9
FC(F)(F)c1ccnc(NCc2ccco2)n1 | -2% | . | -7 | . | -0.7
CCOC(=O)C1CCCN(C(=O)COc2ccccc2F)C1 (centres undefined) | 2% | . | 0 | 0 | .
O=C(NCc1ccccc1)Nc1cccn(Cc2c(F)cccc2Cl)c1=O | -2% | . | 4 | -4 | -0.2
Cc1cc(C)c2nc(SC(C)C(=O)NCC(=O)Nc3ccc(F)c(F)c3F)cc(C)c2c1 (centres undefined) | 7% | -19 | 0 | -5 | -2.8
Cc1[nH]c2ccccc2c1SCC(=O)NNC(=O)Nc1ccc(OC(F)(F)F)cc1 | 2% | . | -5 | . | -0.4
Fc1ccc(Cn2nnc(-c3ccc(CN4CCOCC4)cc3)n2)cc1 | -5% | -4 | 2 | -4 | 0.1
CCOC(=O)C(NCc1ccc(F)cc1)(NC(=O)c1ccccc1)C(F)(F)F (centres undefined) | -7% | -8 | 3 | -5 | -0.2
O=C(Nc1cccc2nsnc12)c1ccc(F)cc1 | 7% | 14 | -1 | 12 | -6.6
